PrP 5UTR inh: suppresses PrP 5' UTR mRNA reporter expression. cell-based PrP 5' UTR mRNA reporter, plate reader. inhibition, % (concentration not given with the values). actives 0.35% (n = 340,000). AID 488862;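 active = every replicate at 50% or more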;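 also: 0 = median of the neutral control wells; tested in H4 reporter cells; numbers are from one replicate; inactives centre near -14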
Sa RN4220 lethal: kills Staphylococcus aureus RN4220; S. aureus RN4220 growth, OD600, 16 h; inhibition, % (test concentration not listed); actives 0.33% (n = 330,000);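 active = z-score of -3 or lower and OD600 up to 0.18 on both plates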;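 also: plate controls were untreated cells for no effect and reference antibiotic for full effect; stock transfer was 100 nL into about 80 µL; one replicate is shown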
BJeLR viability: kills HRASV12-expressing BJeLR cells. BJeLR (HRASV12) viability, CellTiter-Glo ATP luminescence, 48 h; reference of the scale not given here. inhibition, % (concentration not given with the values). actives 0.17% (n = 300,000);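 active = replicate mean above 50%; inconclusive = above 50% but judged a plate artefact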;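 also: 50 nL library stock added to about 25 µL; numbers are from one replicate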
Mtb hypoxia rep: inhibitors of hypoxia-regulated fluorescent reporter in Mycobacterium tuberculosis; actives 0.1% (n = 300,000); fluorescence inhibition, % (concentration not given with the values); AID 1159583; M. tuberculosis hypoxia-regulated fluorescent reporter, fluorescence;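 active = 35 to 45% if threefold the growth effect, above 45% if 1.5-fold the growth effect; inactive = the rest, general growth blockers included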;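 also: wells of about 50 µL received 100 nL stock; 0% = vehicle wells and 100% = reference inhibitor wells; whole bacteria with a GFP reporter of the hypoxia response; strong numbers were not always called active; many hits fall short of the cut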
Bead autofluor: flagged as autofluorescent in microsphere protease counterscreen; fluorescence intensity (concentration not given with the values); compound autofluorescence counterscreen, microsphere flow cytometry; stronger effect = higher value; actives 3.1% (n = 360,000);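 active = at least 3 SD above the mean of all compounds, about 16000 in these data; inconclusive = too few beads counted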;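 also: 100 nL of 1 mM stock went into each well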
ugtP null kill: kills S. aureus RN4220 lacking UgtP | S. aureus RN4220 ugtP deletion, OD600 growth, 16 h; some inactives read as strong as hits | growth inhibition, % (no concentration beside the values) | actives 0.54% (n = 330,000) | AID 1259309;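 active = z-score under -3 and OD600 up to 0.15 on both plates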;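 also: plate controls were untreated wells for no effect and antibiotic for full effect; wells of about 80 µL received 100 nL stock; the first replicate is given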
Mtb hypoxia rep growth: second read-out of Mtb hypoxia rep, no call of its own (marks repeat the call); growth inhibition, %; measured here: M. tuberculosis growth (absorbance);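 0% = vehicle and 100% = reference antibiotic; read after six days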
* marks the source's active call; other numbers are inactive results; ? = inconclusive; · = not tested or not shown.

nr	smiles	PrP 5UTR inh	Sa RN4220 lethal	BJeLR viability	Mtb hypoxia rep	Mtb hypoxia rep growth	Bead autofluor	ugtP null kill
1	C/C(CC(=O)Nc1ccc2c(c1)OCCO2)=N\NC(=O)COc1ccc(C)cc1	-11	·	-9	·	·	3124	·
2	COc1ccc(-c2cc(C(=O)Nc3cc(C)on3)c3ccccc3n2)c(OC)c1	-19	1.2	-8	3	2	4116	-2
3	CCn1c(SCc2ccc(C)cc2)nnc1C1CCN(S(=O)(=O)c2ccc(OC)cc2)CC1	-1	4.3	-8	8	17	9133	-3
4	CCOC(=O)C1CCN(C(=O)c2cccc(S(=O)(=O)N3CCCc4ccccc43)c2)CC1	-6	5.5	·	3	7	6710	2
5	O=C(CCCn1c(=S)[nH]c2ccsc2c1=O)NCc1ccco1	3	1.2	-2	0	3	19127*	6
6	CC(=NCC1CCCO1)c1c(O)n(-c2ccccc2C)c(=O)[nH]c1=O (stereo unspecified)	-12	-3.0	-3	-2	-3	8437	-6
7	O=C(NCCc1ccccc1)C1CCCN1C(=O)Nc1ccc(F)cc1 (stereo unspecified)	-14	2.2	-5	3	12	3764	-2
8	COc1cccc(-c2nn(C)c3sc(C(=O)NCc4ccco4)cc23)c1	-8	4.5	3	·	·	2369	3
9	O=C(NC(Cc1ccccc1)C(=O)NCc1ccccn1)c1ccco1 (stereo unspecified)	-22	0.4	-1	8	5	17464*	1
10	O=c1c2cnn(-c3ccccc3)c2ncn1CCc1ccccc1	-9	0.5	5	-3	-1	2449	4
11	O=C(O)c1ccccc1C(=O)Nc1ccc(-n2nc(C(F)(F)F)cc2C(F)(F)F)cc1	·	0.6	-9	10	5	·	4
12	O=C(COC(=O)c1cccc(O)c1)Nc1nnc(-c2ccccc2)o1	-2	8.9	-4	7	0	5167	1
13	Cc1ccc(CCNC(=O)CCNS(=O)(=O)c2ccc3c(c2)c(=O)n(C)c(=O)n3C)cc1	-12	2.5	0	4	4	10580	1
14	CCC(=O)Nc1nc2nc(-c3ccccc3)cc(-c3ccccc3)n2n1	-24	3.8	1	3	12	10102	-1
15	O=C(c1ccc(COc2ccc3ccccc3c2)o1)N1N=C(C(F)F)CC1(O)C(F)F (stereo unspecified)	-49	0.3	5	-1	3	11512	-12
16	COc1ccc(-c2ccc(-c3noc(-c4ccccc4C)n3)c(OC)n2)cc1	-16	20	8	12	10	3041	11
17	CC1(C)CC(=O)N(c2cccc(C(F)(F)F)c2)C(=O)C1	-111	2.2	-4	10	13	3773	-1
18	CCCCn1c(Cl)nc2c1c(=O)n(C)c(=O)n2C	-12	-4.5	2	8	15	·	-3
19	CCSc1nnc(-c2ccccc2SC)o1	-24	8.7	-1	22	9	2715	6
20	O=C(COC(=O)C(O)C(O)C(=O)OCC(=O)c1ccc(C(F)(F)F)cc1)c1ccc(C(F)(F)F)cc1 (stereo unspecified)	-32	3.0	3	4	7	·	1
21	Cc1cccnc1NC(=O)c1ccc([N+](=O)[O-])o1	-33	4.0	14	2	4	7739	9
22	Cc1ccnc(SCC(=O)c2cc3ccccc3o2)n1	-29	2.1	4	-8	-10	3384	0
23	COc1ccc(OC)c(C2C(C(=O)N(C)C)=C(C)Nc3nc4ccccc4n32)c1 (stereo unspecified)	-4	-1.4	6	-5	4	?	-2
24	O=C(CCCCn1c(=O)c2ccccc2n(Cc2ccc(Cl)cc2)c1=O)NCc1ccco1	-19	-5.2	0	·	·	2691	-2
25	COc1ccc(-c2cc(=O)oc3cc(OCC(=O)N4C[C@H]5C[C@@H](C4)c4cccc(=O)n4C5)ccc23)cc1	-21	1.0	1	·	·	5688	10

Quoted at random: 3 entries already listed
nr	smiles	PrP 5UTR inh	Sa RN4220 lethal	BJeLR viability	Mtb hypoxia rep	Mtb hypoxia rep growth	Bead autofluor	ugtP null kill
17	CC1(C)CC(=O)N(c2cccc(C(F)(F)F)c2)C(=O)C1	-111	2.2	-4	10	13	3773	-1
21	Cc1cccnc1NC(=O)c1ccc([N+](=O)[O-])o1	-33	4.0	14	2	4	7739	9
15	O=C(c1ccc(COc2ccc3ccccc3c2)o1)N1N=C(C(F)F)CC1(O)C(F)F (stereo unspecified)	-49	0.3	5	-1	3	11512	-12

As entered above.
Bead autofluor with no. 24 stands at 2691
Sa RN4220 lethal with no. 9 stands at 0.4
Bead autofluor with no. 4 stands at 6710
ugtP null kill with no. 15 stands at -12

Back to the main list; the two compounds before the break are reprinted first.
nr	smiles	PrP 5UTR inh	Sa RN4220 lethal	BJeLR viability	Mtb hypoxia rep	Mtb hypoxia rep growth	Bead autofluor	ugtP null kill
24	O=C(CCCCn1c(=O)c2ccccc2n(Cc2ccc(Cl)cc2)c1=O)NCc1ccco1	-19	-5.2	0	·	·	2691	-2
25	COc1ccc(-c2cc(=O)oc3cc(OCC(=O)N4C[C@H]5C[C@@H](C4)c4cccc(=O)n4C5)ccc23)cc1	-21	1.0	1	·	·	5688	10
26	O=C1CCCc2c1[nH]c1ccc(Br)cc21	-3	3.6	-17	3	7	10285	-12
27	CCOc1ccc(C(=O)N2CCN(C(=O)c3ccco3)CC2)cc1OCC	-39	1.6	0	14	8	6958	2
28	Cc1ccc(C(=O)NCC(=O)OCCCOC(=O)CNC(=O)c2ccc(C)c(C)c2)cc1C	-27	-1.6	·	8	2	4286	6
29	CCc1noc(C)c1C(=O)Nc1cc(Cl)ccc1-n1cncn1	-93	-1.0	-2	-9	-4	6206	1
30	O=C(Nc1ccc2c(c1)OCO2)C1CC1(Cl)Cl (stereo unspecified)	-8	6.3	·	10	10	·	3
31	COc1ccccc1/C=C/C=Nn1c(-c2ccc(Cl)cc2)n[nH]c1=S	·	5.4	·	6	15	·	-22
32	Cc1cc(O)c2c(c1)OC(C)(C)C1=C2CC(C)CC1 (stereo unspecified)	-18	-12	0	3	6	3741	72
33	Cc1csc(NC(=O)CCNC(=O)c2ccc([N+](=O)[O-])cc2)n1	-21	6.2	-17	5	1	2061	5
34	COCCOCC(O)CN1CCN(c2ccccc2)CC1 (stereo unspecified)	8	1.2	-1	·	·	4799	1
35	COc1ccccc1NS(=O)(=O)c1cccc(C(=O)NN=C(C)c2ccc3c(c2)OCCO3)c1	·	8.4	·	-3	-3	·	5
36	COC(=O)c1ccccc1NC(=O)Cn1cnc([N+](=O)[O-])c1	-17	2.3	-3	4	3	3971	10
37	S=C(NCCc1ccccc1)Nc1ccc(Br)cc1	-55	-8.3	-12	9	20	1835	-15
38	CCN(CC(=O)NCCc1ccccc1)S(=O)(=O)c1ccc(Br)cc1	-31	-1.4	2	17	8	11592	13
39	COc1ccc(C(=O)NNC(=O)Nc2ccc(C)cc2)cc1	-11	-0.8	7	12	-11	8917	1
40	CC(=O)Nc1ccc(C(=O)Nc2nc(-c3cccnc3)cs2)cc1	-12	1.6	-20	-12	-3	3422	2
41	O=C(NCc1cccnc1)c1ccc(COc2ccccc2Cl)o1	-21	-0.9	1	10	5	4446	2
42	N#Cc1ccccc1Sc1ccccc1C(=O)NCC(c1ccco1)N1CCCCC1 (stereo unspecified)	·	-1.7	·	8	2	·	3
43	CC(=O)c1ccc(NC(=O)Cn2cnc(S(=O)(=O)N3CCC(C)CC3)c2)cc1	-10	1.2	-1	-2	5	5760	3
44	Cc1ccc(C)c(NC(=O)c2cc(-c3ccccc3O)n[nH]2)c1	-30	-3.5	5	4	4	4063	-4
45	CCC(C)N(C(=O)COC(=O)C1CCN(S(=O)(=O)c2ccc(C)c(C)c2)CC1)C1CCS(=O)(=O)C1 (stereo unspecified)	-20	5.3	-2	3	0	5230	14
46	COc1ccc(NC(=O)CN(C)C(=O)c2cccc(S(=O)(=O)Nc3ccc(F)cc3)c2)cc1	-22	1.8	·	-2	0	6766	6
47	Cc1ccc2cc(C3CC(c4cccs4)=NN3S(C)(=O)=O)c(Cl)nc2c1 (stereo unspecified)	-13	4.0	4	8	10	·	13
48	Cc1nn2c(-c3ccc(S(=O)(=O)N4CCN(CCO)CC4)o3)nnc2c2ccccc12	-20	0.7	5	6	1	5677	3
49	CC(C)c1ccc(S(=O)(=O)N2CCN(C(=O)C3CCCCC3)CC2)cc1	-22	0.0	22	13	11	5382	12
50	COCCOC(=O)C1=C(N)OC2=C(C(=O)CC(C)(C)C2)C1c1ccncc1 (stereo unspecified)	-8	0.0	-2	0	-5	3587	-6
51	CCn1nccc1C(=O)NC1=C(C#N)CCC1	-6	0.2	0	-2	2	10836	0
52	O=S(=O)(c1cccc2cccnc12)N1CCOCC1	-6	5.1	-3	12	6	23370*	-3
53	O=C(Nc1ccc(N2CCOCC2)cc1)Nc1ccc2nc(-c3ccco3)c(-c3ccco3)nc2c1	11	1.9	-8	-3	13	8051	-14
54	COc1ccc([N+](=O)[O-])c(S(=O)(=O)c2ccccc2)n1	·	42	4	20	12	6225	96*
55	Cc1ccc(OCC(=O)c2cc(C)n(C)c2C)c([N+](=O)[O-])n1	-10	7.4	-11	13	8	2371	13
56	Nc1nc(NCCc2ccccc2)nc(NCCO)c1[N+](=O)[O-]	-6	3.6	-2	1	6	3680	8
57	COc1ccc(Br)cc1-c1nc(C)c(C(C)=O)n1O	-4	1.8	1	·	·	2518	-3
58	COc1ccc(CCN2CC(C(=O)OC(C)C(=O)Nc3cccc(Cl)c3)CC2=O)cc1OC (stereo unspecified)	·	-0.2	·	4	0	?	-3
59	COc1ccc2c(c1O)-c1cccc3c1C(C2)N(C)CC3 (stereo unspecified)	·	5.7	·	9	0	·	3
60	CC(=O)NC(CSc1cc(C)nc2ccc(Br)cc12)C(=O)O (stereo unspecified)	-9	1.4	-3	·	·	4932	11
61	Cc1ccc(CNC(=O)CN(C(=O)C2(C)CC(=O)N=C3C=CC=CN32)c2ccc(F)cc2)cc1 (stereo unspecified)	-11	4.5	-20	-1	0	5279	5
62	Cc1oc2c(C)c3oc(=O)c(CCC(=O)N[C@@H](CC(C)C)C(=O)O)c(C)c3cc2c1C	-20	0.7	1	-9	0	2913	2
63	O=c1c2ccccc2nc(/C=C/c2ccc([N+](=O)[O-])o2)n1CCCO	1	114*	52*	·	·	3979	99*
64	NS(=O)(=O)c1cc(C(=O)NCC2CCCCC2)ccc1Cl	-14	3.2	-8	11	11	5529	12
65	CCN(CC)c1cc(-c2ccccc2)ncn1	-35	5.2	-6	10	6	1998	-7
66	CCOc1ccc(NC(=S)N2CCCC2)cc1	-18	0.0	·	7	3	6072	1
67	Cc1ccc(S(=O)(=O)C2C(=O)NC3(C)CC2c2ccccc2O3)cc1 (stereo unspecified)	-21	4.3	0	13	6	3752	2
68	c1ccc(C2Nc3ccccc3C3OCCCC23)cc1 (stereo unspecified)	-3	0.9	7	14	7	4415	18
69	C=CCc1c(C)nc(C)nc1N/N=C/c1ccc(N(C)C)cc1	10	·	7	·	·	2290	·
70	O=C(Nc1cccc2c1C(=O)NC2=O)c1ccc(N2C(=O)CCC2=O)cc1	-9	2.6	-5	5	5	3473	4
71	O=C(CSc1nnc(-c2ccncc2)n1Cc1ccccc1)NCCc1ccccc1	-22	6.6	6	2	4	3119	0
72	CN(Cc1ccccc1)C(=O)c1ccc(NC(=O)Cc2ccc(NC(=O)C3CCN(S(=O)(=O)c4cccc([N+](=O)[O-])c4)CC3)cc2)cc1	-17	6.2	·	-5	7	3266	1
73	Cc1cc(C)cc(N(CC(=O)Nc2ccc(C(F)(F)F)cc2)S(=O)(=O)c2c(C)[nH]c(=O)[nH]c2=O)c1	-12	-4.4	0	-11	-4	4484	-4

Arranged by length of the SMILES (rising): part of the list above
nr	smiles	PrP 5UTR inh	Sa RN4220 lethal	BJeLR viability	Mtb hypoxia rep	Mtb hypoxia rep growth	Bead autofluor	ugtP null kill
65	CCN(CC)c1cc(-c2ccccc2)ncn1	-35	5.2	-6	10	6	1998	-7
59	COc1ccc2c(c1O)-c1cccc3c1C(C2)N(C)CC3 (stereo unspecified)	·	5.7	·	9	0	·	3
67	Cc1ccc(S(=O)(=O)C2C(=O)NC3(C)CC2c2ccccc2O3)cc1 (stereo unspecified)	-21	4.3	0	13	6	3752	2

Bioassay records (PubChem BioAssay)
